Source: PubChem (Broad Institute)
NOMO-1 viab: STK33 inhibitor candidate reducing NOMO-1 cell viability; NOMO-1 AML viability, CellTiter-Glo luminescence, 72 h; inhibition, % (no concentration beside the values); actives 7.5% (n = 37,000);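 active = most replicates above 80%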;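 note: wells of about 30 µL received 25 nL stock; 0% = median of vehicle wells and 100% = reference inhibitor level; the first replicate is given; inactives centre near 10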
* = called active by the depositor. Only part of the results is shown (hit frequency here may not be typical).

SMILES	NOMO-1 viab
Cc1noc(C)c1NC(=O)Nc1ccc2c(c1)CC(=O)N([C@H](C)CO)C[C@H](C)[C@H](CN(C)Cc1ccc(Oc3ccccc3)cc1)O2	34
COc1ccc(NC(=O)Nc2ccc3c(c2)C(=O)N([C@H](C)CO)C[C@@H](C)[C@@H](CN(C)C(=O)Nc2ccc4c(c2)OCO4)O3)cc1	17
O=C(O)CCc1ccc(-c2ccc(F)cc2)n1-c1cccc(C(=O)O)c1	-29
COc1cc(O)c2c(c1)O[C@@H](c1ccccc1)CC2=O	-13
O=C(O)c1ccccc1Sc1ccccc1S(=O)(=O)NC1CCCCC1	10
COc1ccc(S(=O)(=O)Nc2cccc3c2O[C@H](CN(C)C(=O)Nc2cccc4ccccc24)[C@H](C)CN([C@@H](C)CO)C3=O)cc1	24
C[C@@H]1CN([C@@H](C)CO)C(=O)c2cccc(NC(=O)c3nc4ccccc4s3)c2O[C@H]1CN(C)S(=O)(=O)c1cccs1	54
O=C(OCC1OC(Oc2ccc(O)cc2COC(=O)C2(O)C(O)CCC(=O)C2O)C(O)C(O)C1O)c1ccccc1 (configuration not stated)	23
C[C@@H]1CN([C@H](C)CO)C(=O)c2cccc(NS(=O)(=O)c3ccc(F)cc3)c2O[C@H]1CN(C)S(=O)(=O)c1cccs1	-15
Cc1noc(C)c1S(=O)(=O)N(C)C[C@H]1Oc2ccc(NS(=O)(=O)c3ccc(F)cc3)cc2CC(=O)N([C@H](C)CO)C[C@H]1C	2
C[C@H]1CN([C@@H](C)CO)C(=O)c2cc(NC(=O)C3CC3)ccc2O[C@H]1CN(C)S(C)(=O)=O	0
COc1ccc(S(=O)(=O)N(C)C[C@@H]2Oc3ccc(NC(=O)Nc4ccc(C(F)(F)F)cc4)cc3C(=O)N([C@@H](C)CO)C[C@H]2C)cc1	48
C[C@@H]1CN([C@H](C)CO)C(=O)c2cc(N(C)C)ccc2O[C@H]1CN(C)Cc1ccc(Oc2ccccc2)cc1	42
CC(=O)Nc1ccc(NS(=O)(=O)c2ccc(C)cc2[N+](=O)[O-])cc1	21
Cc1ccc(-c2nnc(SCc3ccccc3C#N)n2-c2ccccc2)cc1Cl	32
COc1ccc(S(=O)(=O)N(C)C[C@@H]2Oc3ccc(NS(=O)(=O)c4ccc(Cl)cc4)cc3C(=O)N([C@H](C)CO)C[C@H]2C)cc1	12
O=C(O)Cc1nn(Cc2ccc(Br)cc2F)c(=O)c2ccccc12	0
CC(C)NC(=O)N(C)C[C@H]1Oc2ccc(NC(=O)C3CCCCC3)cc2CC(=O)N([C@@H](C)CO)C[C@H]1C	-9
C[C@@H]1CCCCO[C@H](CN(C)S(=O)(=O)c2cn(C)cn2)[C@@H](C)CN([C@H](C)CO)C(=O)c2cc(NC(=O)c3ccccc3)ccc2O1	35
Cc1ccc(-c2noc(CCCN3C(=O)c4ccccc4C3=O)n2)cc1	22
O=C(CN1C(=O)c2ccccc2S1(=O)=O)Nc1ccccc1C(=O)N1CCOCC1	7
Cc1ccc(S(=O)(=O)N(C)C[C@H]2Oc3ccc(NC(=O)Nc4ccc(C(F)(F)F)cc4)cc3C(=O)N([C@@H](C)CO)C[C@H]2C)cc1	119*
C[C@@H]1CN([C@H](C)CO)C(=O)c2cc(NS(=O)(=O)c3cn(C)cn3)ccc2O[C@H]1CN(C)S(=O)(=O)c1cn(C)cn1	-11
C[C@@H]1CN([C@H](C)CO)C(=O)c2cc(NC(=O)CCN3CCOCC3)ccc2O[C@@H]1CN(C)Cc1ccncc1	21
C[C@@H]1CN([C@H](C)CO)C(=O)c2cc(NC(=O)Nc3ccc4c(c3)OCO4)ccc2O[C@@H]1CN(C)Cc1ccc(Oc2ccccc2)cc1	66
COc1ccc(S(=O)(=O)Nc2ccc3c(c2)C(=O)N([C@@H](C)CO)C[C@H](C)[C@H](CN(C)Cc2ccc(C(F)(F)F)cc2)O3)cc1	51
COc1c(C(C)C)cc2c(c1O)[C@]13CC[C@H](OC1=O)C(C)(C)C3CC2 (some centres not stated)	46
C[C@@H]1CCCCO[C@H](CN(C)Cc2ccc(C(=O)O)cc2)[C@@H](C)CN([C@H](C)CO)C(=O)c2cc(NC(=O)C3CCCCC3)ccc2O1	15
C[C@H]1CN([C@@H](C)CO)C(=O)c2cccc(NC(=O)Nc3ccc(F)cc3)c2O[C@H]1CN(C)Cc1ccc(Cl)c(Cl)c1	41
CC(C)NC(=O)Nc1ccc2c(c1)C(=O)N([C@H](C)CO)C[C@H](C)[C@@H](CN(C)Cc1ccc(C(=O)O)cc1)OCCCC[C@@H](C)O2	-17
COc1ccc(NC(=O)Nc2ccc3c(c2)C(=O)N([C@H](C)CO)C[C@H](C)[C@@H](CN(C)C(=O)Nc2ccc(F)cc2)OCCCC[C@@H](C)O3)cc1	32
C[C@@H]1CCCCO[C@@H](CN(C)S(=O)(=O)c2cccs2)[C@@H](C)CN([C@H](C)CO)C(=O)c2cc(NC(=O)Cc3ccccc3)ccc2O1	14
COc1cc(OC)cc(-c2nnc(SCC(=O)Nc3sc4c(c3C#N)CCCC4)o2)c1	56
Cc1ccc(-c2nn3c(C)nnc3s2)cc1NC(=O)C(C)Oc1ccc(Cl)cc1Cl (configuration not stated)	8
Cc1ccc(N(Cc2ccco2)C(=O)c2cccc(S(=O)(=O)N3CCOCC3)c2)cc1	-17
CCOC(=O)c1c(C)oc2ccc(S(=O)(=O)n3cc(-c4ccc(C)cc4)c(N)n3)cc12	22
O=C(Nc1cc(C(F)(F)F)ccc1Cl)C(Cc1ccccc1)N1C(=O)C2C3C=CC(C4CC34)C2C1=O (configuration not stated)	51
Cc1noc(C)c1NC(=O)N(C)C[C@@H]1Oc2ccc(NC(=O)NC(C)C)cc2C(=O)N([C@@H](C)CO)C[C@@H]1C	5
CCOC(=O)c1cc2c(NC(C)=O)c(C(=O)OCC)sc2nc1C(F)(F)F	3
CNC[C@@H]1Oc2ccc(NC(=O)CCN3CCOCC3)cc2CC(=O)N([C@H](C)CO)C[C@@H]1C	8
Fc1cccc(Cl)c1CSC1=NCCN1	136*
C[C@H](CO)N1C[C@H](C)[C@H](CN(C)Cc2ccc3c(c2)OCO3)Oc2ccc(NS(C)(=O)=O)cc2CC1=O	-7
O=C(CSc1nnnn1-c1ccccc1)Nc1cccc(C(=O)O)c1	-12
C[C@H](CO)N1C[C@H](C)[C@@H](CN(C)C(=O)Nc2cccc3ccccc23)Oc2ccc(NC(=O)Nc3ccccc3)cc2C1=O	10
COc1cc(C2c3c(cc(OC)c(O)c3OC)CC(CO)C2COC2OC(CO)C(O)C(O)C2O)cc(OC)c1O (configuration not stated)	5
COc1ccc(CN(C)C[C@@H]2Oc3ccc(NS(=O)(=O)c4ccc(F)cc4)cc3C(=O)N([C@@H](C)CO)C[C@H]2C)cc1	6
COc1cc(Cl)c(C)cc1NC(=O)CSC1=C(C#N)C(c2ccccc2F)CC(=O)N1 (configuration not stated)	57
COc1ccc(C)cc1NC(=O)CNS(=O)(=O)c1ccc(C)cc1	27
Cc1noc(C)c1S(=O)(=O)Nc1ccc2c(c1)C(=O)N([C@H](C)CO)C[C@H](C)[C@@H](CN(C)CC1CC1)O2	-10
c1cc(-c2nn[nH]n2)ccc1OCc1nn[nH]n1	3
C[C@H]1CN([C@@H](C)CO)C(=O)c2cc(NC(=O)Nc3ccc(F)cc3)ccc2O[C@@H]1CN(C)Cc1ccc(C(=O)O)cc1	-5
COc1ccc(NC(=O)N(C)C[C@@H]2Oc3c(NC(=O)c4ccc(-c5nccs5)cc4)cccc3C(=O)N([C@H](C)CO)C[C@@H]2C)cc1	30
COc1ccc(CN(C)C[C@H]2Oc3ccc(NS(C)(=O)=O)cc3C(=O)N([C@H](C)CO)C[C@H]2C)cc1	27
C[C@H]1CN([C@@H](C)CO)C(=O)c2cc(NC(=O)Cn3cnnn3)ccc2O[C@@H]1CN(C)Cc1ccc(-c2ccccc2)cc1	6
C[C@@H]1CN([C@@H](C)CO)C(=O)c2cc(N(C)C)ccc2O[C@@H]1CN(C)Cc1ccc(-c2ccccc2)cc1	19
Cc1cc(C)nc(NS(=O)(=O)c2ccc(-n3c(-c4ccc5ccccc5n4)n[nH]c3=S)cc2)n1	-4
CC(C)NC(=O)N(C)C[C@H]1Oc2ccc(NC(=O)C3CCCCC3)cc2C(=O)N([C@@H](C)CO)C[C@H]1C	-9
O=C(CSc1n[nH]c(-c2ccc(Cl)cc2)n1)Nc1cccc(C(F)(F)F)c1	37
C[C@H](CO)N1C[C@H](C)[C@H](CN(C)Cc2ccc(Oc3ccccc3)cc2)Oc2c(NC(=O)Nc3ccc(F)cc3)cccc2C1=O	32
Cc1noc(C)c1S(=O)(=O)Nc1ccc2c(c1)C(=O)N([C@@H](C)CO)C[C@H](C)[C@@H](CN(C)C(=O)Nc1cccc3ccccc13)O2	12

Part of the list above, with each value named:
O=C(CSc1nnnn1-c1ccccc1)Nc1cccc(C(=O)O)c1
  NOMO-1 viab: -12
Cc1cc(C)nc(NS(=O)(=O)c2ccc(-n3c(-c4ccc5ccccc5n4)n[nH]c3=S)cc2)n1
  NOMO-1 viab: -4

Later entries
SMILES	NOMO-1 viab
CCOC(Cn1c2ccccc2c2ccccc21)OCC	50
Cc1cc(Cl)ccc1OCC(=O)Nc1cccc(NC(=O)c2ccccc2C)c1	38
C[C@@H]1CN([C@H](C)CO)C(=O)Cc2cc(NC(=O)Cn3cnnn3)ccc2O[C@@H]1CN(C)CC1CCCCC1	2
COc1ccc(NC(=O)N(C)C[C@H]2Oc3ccc(NS(=O)(=O)c4cccs4)cc3CC(=O)N([C@@H](C)CO)C[C@H]2C)cc1	9
C[C@@H]1CN([C@H](C)CO)C(=O)Cc2cc(NS(=O)(=O)c3ccc(Cl)cc3)ccc2O[C@@H]1CN(C)Cc1ccc(Oc2ccccc2)cc1	82*
Cc1ccc(S(=O)(=O)Nc2ccc3c(c2)C(=O)N([C@@H](C)CO)C[C@@H](C)[C@@H](CN(C)C(=O)Nc2cccc4ccccc24)O3)cc1	9
COc1ccc(C(C)C(=O)c2ccc(O)cc2O)cc1O (configuration not stated)	41
Cc1ccc(S(=O)(=O)NC(C)C(=O)Nc2ccc(I)cc2)cc1 (configuration not stated)	-10
CNC[C@@H]1OCCCC[C@@H](C)Oc2ccc(NS(=O)(=O)c3ccccc3)cc2C(=O)N([C@H](C)CO)C[C@@H]1C	-14
C[C@@H]1CN([C@H](C)CO)C(=O)c2cccc(NC(=O)C3CC3)c2O[C@@H]1CN(C)S(=O)(=O)c1ccc(F)cc1	22
C=C1C(=O)O[C@H]2[C@H]1[C@@H](OC(=O)C(C)(O)C(C)Cl)C(OC(C)=O)/C(C(=O)OC)=C\CC[C@@]1(C)O[C@H]21 (some centres not stated)	119*
C[C@H](CO)N1C[C@H](C)[C@H](CN(C)S(=O)(=O)c2cn(C)cn2)Oc2ccc(NC(=O)CCCCCC(=O)Nc3ccccc3N)cc2CC1=O	-1
C[C@@H]1CN([C@@H](C)CO)C(=O)c2cccc(NC(=O)Nc3ccc4c(c3)OCO4)c2O[C@@H]1CN(C)S(=O)(=O)c1cn(C)cn1	-8
CNC[C@H]1Oc2ccc(NC(=O)Nc3cccc4ccccc34)cc2CC(=O)N([C@@H](C)CO)C[C@@H]1C	2
Cc1ccc(C(=O)Nc2ccc(OCC(=O)O)cc2)cc1C	44
O=C(c1ccccc1)N(C(=O)c1ccccc1)C(=O)c1ccccc1	24
COc1ccc(S(=O)(=O)Nc2ccc3c(c2)CC(=O)N([C@H](C)CO)C[C@@H](C)[C@@H](CN(C)Cc2ccc4c(c2)OCO4)O3)cc1	-21
COC(=O)C1=C(Nc2ccc(F)cc2F)CSC1	-1
Cc1ccc(OCC(=O)Nc2cccc(NC(=O)c3ccco3)c2)cc1C	31
CC(C)N(Cc1nc(-c2ccccc2Cl)no1)C(=O)c1ccccc1-c1ccccc1	36

Six records drawn at random from those above:
SMILES	NOMO-1 viab
COc1ccc(S(=O)(=O)Nc2ccc3c(c2)CC(=O)N([C@H](C)CO)C[C@@H](C)[C@@H](CN(C)Cc2ccc4c(c2)OCO4)O3)cc1	-21
COc1ccc(NC(=O)N(C)C[C@H]2Oc3ccc(NS(=O)(=O)c4cccs4)cc3CC(=O)N([C@@H](C)CO)C[C@H]2C)cc1	9
Cc1ccc(OCC(=O)Nc2cccc(NC(=O)c3ccco3)c2)cc1C	31
Cc1ccc(S(=O)(=O)NC(C)C(=O)Nc2ccc(I)cc2)cc1 (configuration not stated)	-10
Cc1ccc(C(=O)Nc2ccc(OCC(=O)O)cc2)cc1C	44
CNC[C@H]1Oc2ccc(NC(=O)Nc3cccc4ccccc34)cc2CC(=O)N([C@@H](C)CO)C[C@@H]1C	2

Continuation:
SMILES	NOMO-1 viab
Cc1noc(C)c1NC(=O)N(C)C[C@H]1Oc2ccc(NC(=O)CCCN(C)C)cc2C(=O)N([C@H](C)CO)C[C@H]1C	13
C[C@H]1CN([C@@H](C)CO)C(=O)Cc2cc(NC(=O)Nc3ccc(C(F)(F)F)cc3)ccc2O[C@@H]1CN(C)C(=O)Nc1ccc2c(c1)OCO2	26
CC(C)NC(=O)N(C)C[C@H]1Oc2ccc(NC(=O)Nc3ccc(F)cc3)cc2CC(=O)N([C@H](C)CO)C[C@H]1C	8
COc1ccc(NC(=O)N(C)C[C@@H]2Oc3c(NC(=O)c4nc5ccccc5s4)cccc3C(=O)N([C@@H](C)CO)C[C@H]2C)cc1	17
Cc1cc(=O)[nH]c(SCCCOc2ccccc2Cl)n1	24
